Source: PubChem (several laboratories)
LANA-H2B inh: blocks KSHV LANA binding to histone H2A/H2B; hit rate 0.6% among 320,000; cell-free LANA-H2A/H2B peptide, fluorescence polarization; inhibition, % (test concentration not listed); Q9QR71; in the data active = inhibition mostly above about 10%, no sharp cut-off; inactive = mostly below about 6.7%;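 note: stock transfer was 7.5 nL into about 10 µL; 0% = median of vehicle wells and 100% = median of positive control wells; one replicate is shown; the record names a cut of 25% in any replicate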
Target sequence (Q9QR71 whole entry, looked up): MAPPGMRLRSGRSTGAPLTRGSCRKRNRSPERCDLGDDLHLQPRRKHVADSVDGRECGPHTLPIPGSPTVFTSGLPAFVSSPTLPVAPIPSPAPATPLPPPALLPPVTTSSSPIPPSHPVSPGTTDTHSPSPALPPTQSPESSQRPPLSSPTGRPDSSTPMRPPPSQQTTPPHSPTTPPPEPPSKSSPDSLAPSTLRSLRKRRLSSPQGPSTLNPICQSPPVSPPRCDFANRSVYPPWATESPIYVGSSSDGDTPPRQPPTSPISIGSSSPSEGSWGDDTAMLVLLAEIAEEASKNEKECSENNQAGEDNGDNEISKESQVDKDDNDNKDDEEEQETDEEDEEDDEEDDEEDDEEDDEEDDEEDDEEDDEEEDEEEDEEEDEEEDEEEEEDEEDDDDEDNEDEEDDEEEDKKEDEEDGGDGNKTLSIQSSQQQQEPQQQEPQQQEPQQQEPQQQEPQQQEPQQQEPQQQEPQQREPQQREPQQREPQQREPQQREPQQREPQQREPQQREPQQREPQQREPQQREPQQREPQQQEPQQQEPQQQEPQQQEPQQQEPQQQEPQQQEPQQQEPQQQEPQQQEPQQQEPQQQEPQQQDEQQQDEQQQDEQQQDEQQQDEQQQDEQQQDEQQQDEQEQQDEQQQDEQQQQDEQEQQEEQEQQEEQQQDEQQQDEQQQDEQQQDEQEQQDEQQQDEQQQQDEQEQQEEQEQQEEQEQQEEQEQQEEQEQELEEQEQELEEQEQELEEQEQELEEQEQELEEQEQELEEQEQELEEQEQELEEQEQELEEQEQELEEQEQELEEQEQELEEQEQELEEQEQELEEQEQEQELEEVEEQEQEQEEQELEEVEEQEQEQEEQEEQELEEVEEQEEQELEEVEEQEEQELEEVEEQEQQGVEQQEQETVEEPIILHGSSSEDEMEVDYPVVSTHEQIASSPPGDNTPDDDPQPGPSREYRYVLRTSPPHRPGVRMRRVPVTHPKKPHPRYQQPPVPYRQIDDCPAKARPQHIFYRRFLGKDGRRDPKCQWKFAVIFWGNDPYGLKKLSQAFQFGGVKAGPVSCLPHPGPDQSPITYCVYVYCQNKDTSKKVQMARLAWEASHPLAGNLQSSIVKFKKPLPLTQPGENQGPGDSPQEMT
T cruzi inh: blocks replication of Trypanosoma cruzi; T. cruzi beta-gal in NIH3T3, luminescence, 90 h; inhibition, % (test concentration not listed); hit rate 1.4% among 300,000;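 active = mean inhibition across valid replicates above about 55%, limit read from the data; inconclusive = mean below that limit but half or more replicates reach it; inactive = mean below it, under half of replicates reach it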;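 note: signal also drops with host cell toxicity which is not excluded here; 0% = plate median of DMSO wells and 100% = zero luminescence signal; higher percent means less beta-gal luminescence so fewer parasites; stock transfer was 50 nL into about 50 µL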
ALR inh: blocks human ALR sulfhydryl oxidase activity | P55789 | purified ALR, DTT oxidation, H2O2 HRP-luminol luminescence | inhibition, % (concentration not given with the values) | hit rate 3.8% among 290,000;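 active = mean and each replicate at 75% or more; inconclusive = only one of the two met; inactive = neither met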;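 note: stock transfer was 7.5 nL into about 7.5 µL; 0% = neutral wells and 100% = wells with inactivated enzyme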
Beta apoptosis: beta cell apoptosis inhibition; INS-1E cytokine-induced death, ATP luminescence, 48 h; percent of positive-control rescue, neutral wells zero; protection from apoptosis, % (no concentration beside the values); hit rate 0.8% among 300,000;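 active = all replicates at 75% or more, or half of them and the mean; inconclusive = half reach 75% but not the mean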;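 note: 0% = cytokine-treated negative control wells and 100% = positive control rescue; higher means more ATP so stronger rescue from cytokine killing; wells of about 40 µL received 100 nL stock; the first replicate is given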
Beta2AR agonist: human beta-2 adrenergic receptor agonism by FAP; hit rate 0.43% among 340,000; Am2.2-beta2AR cells, FAP receptor internalization, flow cytometry; reference of the scale not given here; response, % (no concentration beside the values);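 active = response above a set limit, near 3 SD of response in nonfluorescent compounds, cut at about 42% in these data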;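 note: stock transfer was 100 nL into about 11 µL; a reference agonist was the positive control; negative values mostly stem from fluorescent compounds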
Ecoli rRNA inh: inhibitors of bacterial rRNA selective over humanized ribosomes | hit rate 1.6% among 350,000 | GFP signal change (wild-type ribosome), % (no concentration beside the values) | AID 720706 | E. coli WT GFP vs humanized-ribosome RFP mutants, fluorescence, 24 h; hits give low values; DMSO median 0, no signal -100;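 active = significant combined selectivity score with lowered wild-type GFP, culture density cut under 30%, mutant RFP and density less affected; inactive = any of these conditions unmet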; note: one replicate is shown; some compounds called inactive have numbers as strong as hits
A1 inh: inhibitors of the anti-apoptotic protein A1, read as caspase activation | caspase activation, % (test concentration not listed) | MEF A1-2A-BIM cells, Caspase-Glo 3/7 luminescence, 3 h; percent of clofoctol response, vehicle zero | hit rate 0.066% among 330,000;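 active = over half of replicate activation scores above 10%, or exactly half above 10 with the replicate mean above 10; inconclusive = replicate mean below 10 yet half the replicates above 10; inactive = over half of replicates below 10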;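 note: wells of about 30 µL received 50 nL stock; many hits fall short of the cut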
Calb FLC: C. albicans growth modulation with fluconazole. C. albicans CaCi-2 (fluconazole-resistant clinical isolate) + fluconazole, Alamar Blue growth, 48 h. growth inhibition, % (test concentration not listed). hit rate 0.57% among 300,000;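 active = most replicates above 75%; inconclusive = exactly half above 75%; inactive = most below 75%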;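 note: all wells also contain fluconazole at 8 µg/ml as a sub-toxic cotreatment; 0% = median of DMSO wells and 100% = median of geldanamycin control wells; wells of about 8 µL received 7.5 nL stock; the first replicate is given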
Ecoli rRNA inh OD600: further read-out of Ecoli rRNA inh, marked with its call; OD600 change, %; measured here: OD600 growth;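 optical density of the mix in the first replicate; 0 = DMSO median and -100 = no signal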
Ecoli rRNA inh RFP: further read-out of Ecoli rRNA inh, marked with its call; RFP signal change, %; measured here: RFP humanized mutant strains;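 first replicate; 0 = DMSO median and -100 = no signal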
The depositor's hits bear a star; ? = inconclusive; . = no result given. An excerpt, so the mix of outcomes need not match the whole.

molecule | LANA-H2B inh | T cruzi inh | ALR inh | Beta apoptosis | Beta2AR agonist | Ecoli rRNA inh | Ecoli rRNA inh OD600 | Ecoli rRNA inh RFP | A1 inh | Calb FLC
Cc1cccc(OCC(=O)N/N=C/c2ccccc2C(=O)O)c1 | 1.8 | -25.5 | 10.3 | -2.2 | 5.0 | 6.4 | -19.2 | -3.9 | -0.1 | -22.4
CCn1c(SCC(=O)OC(C)C)nnc1-c1ccccc1OC | 0.9 | 0.6 | -1.5 | -8.2 | 1.3 | 2.8 | 0.5 | -3.7 | 0.4 | 0.5
O=C(Nc1ccnn1C1CCN(Cc2c[nH]c3ccccc23)CC1)c1ccccc1 | 3.9 | 16.4 | 13.1 | -2.9 | 8.8 | 1.2 | -1.7 | 0.3 | -0.6 | -4.6
Nn1c(CSc2nc3ccccc3o2)nnc1CSc1nc2ccccc2o1 | 0.7 | . | 3.8 | -4.4 | -17.1 | . | . | . | 0.0 | .
CSc1nnc(-c2cc3ccccc3cc2O)n1C | 0.1 | . | 1.9 | 1.8 | 4.6 | . | . | . | 0.0 | 10.5
O=C(CCS(=O)(=O)c1ccccc1)NCc1ccccc1 | 37.3* | 3.2 | 22.0 | -5.2 | 4.3 | 13.1 | 1.1 | -0.4 | 0.0 | -11.2
COc1cccc(-c2csc(NC(C)=O)n2)c1 | 5.7 | -20.6 | . | 2.8 | -3.6 | . | . | . | -3.9 | 5.9
CN(CC(=O)Nc1cccc(S(=O)(=O)N2CCCCC2)c1)Cc1ccc(F)cc1 | -1.9 | . | -5.8 | 0.0 | -2.2 | . | . | . | -0.7 | .
CC1CCCN(C(=O)c2cccc(S(=O)(=O)Nc3cc(C(F)(F)F)ccc3Cl)c2)C1 (centres undefined) | -4.1 | 5.8 | 52.8 | -1.1 | 6.1 | -3.7 | -13.1 | -3.4 | 0.8 | 94.1*
CCOc1ccccc1NC(=S)N(Cc1cc2ccc(C)cc2[nH]c1=O)CC1CCCN1CC (centres undefined) | 3.3 | -3.9 | -0.4 | -4.5 | -6.2 | . | . | . | -0.3 | -7.3
CCS(=O)(=O)N1CCN(C(=O)c2cccs2)CC1 | 3.8 | -6.6 | 1.8 | -0.6 | -6.4 | . | . | . | 0.8 | -2.8
Nc1c(C(=O)c2ccc(Cl)cc2)oc2ccccc12 | -1.7 | -7.7 | -4.3 | -5.3 | 6.0 | . | . | . | -0.7 | -5.3
CC(C)Oc1ccc(C(=O)NCC(=O)Nc2ccc3c(c2)CCC3)cc1 | -0.9 | . | 1.5 | -1.3 | 16.2 | 17.4 | 11.8 | 1.8 | -1.4 | .
O=S(=O)(c1cccc(-c2nnc(SCc3ccc(Cl)cc3)o2)c1)N1CCCCC1 | 6.5 | 33.6 | -2.5 | 3.7 | 1.0 | . | . | . | 0.1 | -10.4
COc1ccc2nc(NC(=O)C(NS(=O)(=O)c3cccs3)C(C)C)sc2c1 (centres undefined) | 5.5 | -32.6 | . | . | 1.5 | . | . | . | 0.9 | -20.5
COc1ccccc1/C=C/CN1CCC(Oc2ccc(C(=O)N3CCCC3)cc2)CC1 | 4.2 | 8.4 | -43.1 | -0.2 | 1.1 | 1.3 | 8.0 | 3.3 | 0.8 | -1.8
Cc1cnc(NC(=O)c2ccc(F)c(S(=O)(=O)N3CCOCC3)c2)s1 | 10.0 | . | 0.9 | -7.0 | 9.8 | -10.5 | -10.3 | -5.1 | -1.8 | .
COC(=O)N1C(=O)[C@@](c2ccccc2)(C2CCCC2)N1C(=O)OC | 0.7 | -18.5 | . | 0.5 | 14.4 | . | . | . | 0.2 | 3.4
CCC(C)[C@H](NC(=O)C1CC(=O)N(c2ccc(OC)cc2)C1)C(=O)NC1CCCC1 (some centres undefined) | -1.0 | -8.5 | 0.4 | -3.0 | -2.4 | 4.0 | 12.7 | -0.4 | 1.1 | -28.7
Brc1ccc2c(c1)C(c1cccs1)=NNC(c1cccnc1)=N2 | 5.2 | 21.0 | -6.0 | . | -29.7 | . | . | . | 0.7 | ?
O=C1N[C@@H](Cc2cn(S(=O)(=O)c3ccc(F)cc3)c3ccccc23)C(=O)N[C@H]1Cc1ccccc1 | 4.8 | 1.6 | 2.3 | 3.8 | . | . | . | . | 0.4 | -5.3
CCOC(=O)CSC1=C(C#N)C(c2ccc(F)cc2)C(C(C)=O)=C(C)N1 (centres undefined) | 2.7 | 0.9 | 20.4 | -0.1 | 6.2 | . | . | . | -0.1 | -5.5
CCn1ccnc1CN(C)C(=O)CCc1nnc(CCCc2ccccc2)o1 | 0.1 | -14.2 | -5.6 | -3.0 | 5.4 | 10.4 | 15.8 | -2.7 | -0.1 | 6.6
O=C(NC(Cc1ccccc1)C(=O)Oc1ccc2c(C(F)(F)F)cc(=O)oc2c1)OCc1ccccc1 (centres undefined) | 175.1* | -11.1 | 3.4 | -5.2 | -0.5 | . | . | . | -0.9 | 1.2
COc1ccc(C(C(O)C(=O)c2c[nH]c3ccccc23)N2CCN(c3ccc(OC)cc3)CC2)cc1 (centres undefined) | -3.3 | -6.1 | 22.7 | -5.1 | -4.5 | . | . | . | -0.1 | -11.6
COc1cc(C(=O)NCCC(=O)NCCN2CCCCCC2)cc(OC)c1OC | -2.4 | -14.5 | -1.2 | -5.0 | -15.4 | . | . | . | 0.2 | 12.4
O=C(COc1ccccc1Cc1ccccc1)NCCCN1CCOCC1 | -1.2 | -14.7 | 10.6 | -3.8 | -7.3 | 2.7 | -4.3 | 3.2 | -0.3 | 8.8
COc1ccccc1OCCCCOc1ccccc1C(C)=O | -1.5 | -18.3 | -27.1 | 99.8* | 4.4 | . | . | . | -0.7 | ?
COc1ccc(S(=O)(=O)N2CCN(C(=O)c3cccs3)CC2)cc1 | -4.8 | -9.4 | 54.2 | 1.1 | -3.5 | . | . | . | 1.0 | 0.1
Cc1ccc(CCC(=O)Nc2ccc(Cl)cc2)o1 | 3.6 | -8.9 | 13.5 | 0.5 | -4.8 | -3.3 | 3.4 | -2.4 | 0.7 | -15.2
CCN1C(=O)c2ccccc2S(=O)c2ccc(C(=O)NCCN(CC(C)C)CC(C)C)cc21 (centres undefined) | -1.3 | 5.9 | -19.6 | -5.8 | 2.2 | 0.8 | -13.8 | 0.9 | 1.8 | 1.2
CC(=O)N1c2ccccc2C(=O)C1N(C)c1ccc(C)cc1 (centres undefined) | -4.7 | -1.2 | -34.2 | -8.1 | 1.7 | 8.3 | 10.0 | 0.2 | 0.6 | 9.6
CN1CCN(Cc2c(O)ccc3cc(-c4ccccn4)c(=O)oc23)CC1 | 6.5 | ? | 17.0 | -4.6 | 68.8* | 11.2 | 19.5 | 4.7 | 0.0 | -29.2
Cc1cc(C)n(C(=O)Cc2cn3ccsc3n2)n1 | 9.3 | -16.5 | -17.1 | 1.1 | 4.2 | . | . | . | -0.2 | -14.8
CC1CC(=O)C2=C(C1)Nc1nc3ccccc3n1C2c1cccnc1 (centres undefined) | -3.5 | -5.8 | -5.4 | 3.5 | -6.3 | -0.2 | 2.7 | -1.4 | 0.8 | -25.4
CCCC(=O)Nc1nc2ccc(NC(=O)c3ccccc3F)cc2s1 | 2.6 | 0.4 | . | 36.9 | -8.2 | 11.7 | 10.7 | 0.4 | 0.4 | 29.9
Cc1ccc(N(CC#N)C(=O)CS(=O)(=O)c2cccc([N+](=O)[O-])c2)cc1 | -3.9 | 6.3 | -8.1 | -4.8 | -4.5 | . | . | . | -0.1 | -11.7
O=C1c2cccc3cccc(c23)C(=O)N1OS(=O)(=O)c1ccc(Br)cc1 | 0.4 | -35.8 | -17.2 | -6.6 | 4.3 | -1.1 | 1.9 | -1.4 | -0.9 | 2.0
COc1ccccc1C/C(N)=N/O | -3.9 | -10.7 | -1.5 | -9.9 | -2.7 | . | . | . | 1.4 | 1.5
O=C(Cc1ccc(O)cc1)NCCNC(=S)NCc1ccccc1 | -2.0 | -12.1 | . | . | -3.5 | 20.6 | 2.0 | 2.0 | 0.4 | -6.2
Cc1cc(CNC(=O)COc2ccccc2F)c2ccccc2n1 | 2.7 | -3.5 | . | 5.2 | -16.2 | -0.9 | 2.6 | 0.3 | -0.3 | 14.3
Cc1[nH]c2ccccc2c1C(=O)C(=O)N1CCN(C(=O)c2ccco2)CC1 | 3.4 | -3.6 | 12.9 | 0.7 | -7.8 | 0.8 | 2.3 | 0.5 | -0.5 | -0.6
O=C(CSc1nnc(COc2ccc(Cl)cc2)o1)N1c2ccccc2CCc2ccccc21 | -2.8 | 66.2* | 1.0 | -3.1 | 3.0 | . | . | . | -0.1 | -1.4
Fc1cccc(NC(=S)Nc2cccnc2)c1 | -2.2 | -6.5 | 22.5 | 1.1 | -2.6 | 6.0 | 8.0 | -5.4 | -0.3 | -12.7
C=CCSC1=N/C(=C\c2ccsc2)C(=O)S1 | 1.3 | 4.8 | -2.0 | -6.4 | 4.1 | . | . | . | 0.6 | -19.4
CCN1CCN(c2cc3c(cc2F)c(=O)c(S(=O)(=O)c2ccccc2)cn3C)CC1 | 0.4 | 23.7 | -3.9 | -5.7 | 5.6 | 2.8 | 10.4 | 0.4 | -0.2 | -6.9
O=C(/C=C/c1ccc(Cl)c([N+](=O)[O-])c1)c1cccnc1 | -1.7 | 34.0 | -14.3 | -0.2 | 77.9* | 0.7 | 0.4 | -6.1 | 0.7 | -4.8
COCCn1c(=O)[nH]c2cc(C(=O)NC3CCCCCC3)ccc2c1=O | -3.4 | -8.6 | 0.6 | 4.1 | 4.0 | 3.8 | 5.2 | -1.7 | -0.1 | 0.7
CN1CCN(NC(=O)c2ccc(S(=O)(=O)N3CC4(C)CC3CC(C)(C)C4)cc2)CC1 (centres undefined) | 1.1 | 48.2 | 42.7 | 2.7 | 5.5 | -10.6 | 1.0 | -4.5 | 1.2 | -5.0
O=C(CN1C(=O)NC2(CCCC2)C1=O)N1CCN(S(=O)(=O)c2ccccc2[N+](=O)[O-])CC1 | 2.2 | -3.2 | 1.3 | . | -5.5 | 12.8 | 12.8 | 3.2 | 0.1 | -0.7
COc1ccc2c(c1)c(=O)oc1cc(O)ccc12 | -0.1 | -9.2 | -2.6 | . | 4.5 | . | . | . | -0.8 | -0.9
C=C(C)C(=O)Nc1cccc(C2=NOC3(C2)C[C@@H](C(N)=O)N(C(=O)c2ccc(Cl)cc2)C3)c1 (some centres undefined) | 4.1 | . | -5.0 | -0.6 | . | . | . | . | -1.3 | .
Cc1ccc(C(=O)NCC(=O)OCC(=O)N(CC(C)C)c2c(N)n(Cc3ccccc3)c(=O)[nH]c2=O)cc1C | 4.4 | 2.1 | -3.1 | -1.6 | 5.0 | -4.1 | -6.3 | -3.4 | 0.2 | -1.2
CN1CCN(C(c2ccc(C(F)(F)F)cc2)c2cc(Cl)c3cccnc3c2O)CC1 (centres undefined) | -2.2 | 59.0* | 10.2 | 100.4* | . | -50.6 | -71.5 | -16.5 | 0.7 | 99.6*
